Assay outcomes: PubChem BioAssay, National Center for Advancing Translational Sciences (NCATS)
Six1-Eya2 blk – qHTS Assay for Inhibitors of the Six1/Eya2 Interaction; activity change, % (no concentration beside the values); Homeobox protein SIX1 (Homo sapiens) + Protein phosphatase EYA2 (Homo sapiens), …; AlphaScreen GST-Six1/His-Eya2 binding, biochemical; active compounds read low; control for the full effect not named in the record; 0.56% of 360,000 active; in the data active = activity change below about -65%; inconclusive = about -30% to -65%; inactive = above about -30%; further: on the % scale 0 is the no-effect control and ±100 the full control effect
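GST-Six1 + His-Eya2 (5X stock: 250/500 nM); Tris pH 8.0, 300 mM NaCl, 0.05% BSA, 0.02% Tween 20; GSH donor/Ni acceptor beads; 1 h 37 °C dark; AlphaScreen readout.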
D2 potentiator – Beta-Arrestin HTS for Positive Allosteric Modulators of the Human D2 Dopamine Receptor: Potentiators. 0.23% of 360,000 active. AID 624464, 2012. DiscoveRx D2 beta-arrestin cells, luminescence, 90 min; 100% = 57 uM dopamine signal. D(2) dopamine receptor (Homo sapiens), P14416. potentiation, % (test concentration not listed); active = potentiation of 50% or more; inconclusive = 30% to 50%; inactive = 30% or less;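 further: compound concentration not given in the record; tested on top of an EC20 dose of dopamine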
Target sequence (P14416 whole entry, looked up): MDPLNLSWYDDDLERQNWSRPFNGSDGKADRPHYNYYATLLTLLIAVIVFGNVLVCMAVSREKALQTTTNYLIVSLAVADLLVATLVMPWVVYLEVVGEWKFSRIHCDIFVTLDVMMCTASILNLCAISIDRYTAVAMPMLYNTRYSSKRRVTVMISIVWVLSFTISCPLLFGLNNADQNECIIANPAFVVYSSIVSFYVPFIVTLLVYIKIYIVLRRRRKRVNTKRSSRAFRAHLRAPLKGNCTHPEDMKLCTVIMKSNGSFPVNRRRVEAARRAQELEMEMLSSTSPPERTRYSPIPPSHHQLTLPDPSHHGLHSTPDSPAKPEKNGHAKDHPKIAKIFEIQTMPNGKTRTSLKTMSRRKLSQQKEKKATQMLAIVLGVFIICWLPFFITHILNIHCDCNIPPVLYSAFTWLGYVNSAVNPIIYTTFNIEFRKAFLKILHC
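D2 cells co-treated with compound plus 50 nM dopamine (EC20) for 90 min at 37 deg C to detect potentiation. Beta-arrestin recruitment was read as enzyme-fragment luminescence after 1 h at ambient temperature. Full response was set by 57 uM dopamine.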
gsp agonist – qHTS for Agonist of gsp, the Etiologic Mutation Responsible for Fibrous Dysplasia/McCune-Albright Syndrome: qHTS. AID 624287, 2012. 0.13% of 340,000 active. gsp mutant cells, cAMP HTRF, 30 min; control for the full effect not named in the record. Potency, µM (doses to about 76.9 µM), for inactives: at the highest dose activation (cAMP increase), actives largely listed as activators; active = well fitted activation curve with a large enough effect; inconclusive = small, poorly fitted or top-dose-only effect, or another doubt; inactive = no such curve, though single readings can be large or run the other way; cell line not stated here;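 further: phosphodiesterase inhibitor Ro 20-1724 added with compounds to block cAMP breakdown; potency means the concentration at half of the fitted maximal effect; nearly all actives have a fitted effect of over 60% in size; about a fifth of the inactives were tested at one dose only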
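Cells in DMEM/10% FBS with G418 were pretreated with compounds in DMSO plus […] (300 uM stock) for 30 min at 37C. cAMP was measured by HTRF (cAMP-d2 plus anti-cAMP antibody-K) after 30 min at room temperature.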
CtBP-E1A inh – qHTS Assay for Inhibitors of the CtBP/E1A Interaction. AlphaScreen GST-E1A/His-CtBP binding, 1536-well; active compounds read low; control for the full effect not named in the record. CtBP / adenovirus E1A interaction (AlphaScreen). AID 651724, 2012. activity change, % (concentration not given with the values). 0.49% of 340,000 active; in the data active means activity change below about -65%; inconclusive means about -30% to -65%; inactive means above about -30%; further: on the % scale 0 is the no-effect control and ±100 the full control effect
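Homogeneous bead-based format: GST-tagged E1A captured on glutathione donor beads, His-tagged CtBP on nickel acceptor beads; compounds precede bead addition by 2 h at 37 °C.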
gsp antag – qHTS for Antagonists of gsp, the Etiologic Mutation Responsible for Fibrous Dysplasia/McCune-Albright Syndrome: qHTS. gsp-mutant cells, cAMP HTRF, 30 min; control for the full effect not named in the record. Potency, µM (highest dose often 76.9 µM), for inactives: top-dose activity change, negative = inhibition, usual class: inhibitors. 0.4% of 340,000 active; active = falling curve of any shape with a large fitted effect; inconclusive = falling curve, mostly with a smaller effect; inactive = flat or rising curve; cell line not stated here;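 further: intracellular cAMP measured with PDE inhibitor Ro 20-1724 present during compound exposure; potency means the concentration at half of the fitted maximal effect; on the % scale 0 is the no-effect control and ±100 the full control effect; nearly all actives have a fitted effect of over 65% in size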
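HTRF cAMP read-out (cAMP-d2 plus anti-cAMP antibody-K in lysis buffer, 30 min RT). Before lysis, cells are exposed to compounds with […] for 30 min at 37C in DPBS containing Ca/Mg, BSA and Tween 20.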
D2 ag – Beta-Arrestin HTS for Positive Allosteric Modulators of the Human D2 Dopamine Receptor: Agonists. D(2) dopamine receptor (Homo sapiens), P14416. DiscoveRx PathHunter D2 beta-arrestin, luminescence, 90 min; 100% = 57 uM dopamine signal. activation, % (test concentration not listed). 0.084% of 360,000 active; in the data active = activation above about 40%; inconclusive = about 15% to 40%; inactive = below about 15%; further: compound concentration not given in the record; the text of the record calls up to 30% inactive
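DiscoveRx PathHunter D2 beta-arrestin cells (2,100/well) attached overnight, then compound-stimulated 90 min at 37 C in HBSS/10 mM HEPES/0.1% Tween-20 buffer; beta-galactosidase complementation read by luminescence after 1 h at ambient temperature. Dopamine 57 uM final (EC100) as control.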
* hit, by the source's call; ? = inconclusive; / = not tested or not shown; [ ] = dose if it differs, or a comment.

(1) O=C(Nc1cc(S(=O)(=O)Nc2ccc(Cl)cc2)ccc1O)c1ccc(S(=O)(=O)N2CCCCCC2)cc1
(2) CSc1cc(C)nc(NC(C)=O)n1
(3) CCOC(=O)C(=CNc1ccc(S(N)(=O)=O)cc1)C(=O)OCC
(4) COc1ccc(NC2C=CS(=O)(=O)C2)cc1 (stereo not drawn)
(5) CCCc1cc(=O)[nH]c(SCC(=O)N2CCN(S(=O)(=O)c3ccc4ccccc4c3)CC2)n1
(6) O=C(c1cc(C(=O)N2CCOCC2)c2nc3ccccc3n2c1)c1cc(Cl)cc(Cl)c1O
assay / compound	1	2	3	4	5	6
Six1-Eya2 blk	-1	3	1	0	8	3
D2 potentiator	7	-4	-5	1	-3	-11
gsp agonist	0%[15.4 µM]	6%	-17%[15.4 µM]	11%	19%	23%
CtBP-E1A inh	-4	5	1	7	-6	1
gsp antag	-110%	1%	-3%	4%	-11%	-19%
D2 ag	-0.5	-1.7	-1.3	-0.6	1.0	-5.4

(7) CCOC(=O)c1c(NC(=O)C(C)OC(=O)c2ccc(NC(=O)CC#N)cc2)sc2c1CCCC2 (stereo not drawn)
(8) Cc1ccc([C@@H]2CC(=O)[C@@H]3CN(S(=O)(=O)c4ccccc4C)[C@H](c4ccc(Cl)cc4)C[C@@H]3N2S(=O)(=O)c2ccc(C)cc2)cc1
(9) O=C1COc2ccc(C(=O)COC(=O)C3CC(O)CN3S(=O)(=O)c3ccc(Cl)cc3)cc2N1 (stereo not drawn)
(10) Cc1cccc(-c2nc(C#N)c(N3CCCCCC3)o2)c1
(11) COc1ccc(-n2c3c(c(=O)[nH]c2=O)C(NS(=O)(=O)c2ccc(Cl)cc2)(C(F)(F)F)C(=O)N3)cc1 (stereo not drawn)
(12) CCN1C(=O)[C@H]2[C@@H](c3ccc(Cl)cc3)N3C(=O)CN(CC4CC4)C(=O)[C@@]3(C)[C@H]2C1=O
assay / compound	7	8	9	10	11	12
Six1-Eya2 blk	-7	1	-1	?	-11	0
D2 potentiator	11	4	-5	-9	-1	2
gsp agonist	4%	21%	25%	-1%	-31%[15.4 µM]	/
CtBP-E1A inh	-4	4	/	1	-12	7
gsp antag	-15%	/	-5%	-16%	13%	11%
D2 ag	-3.4	-9.5	5.8	-2.0	5.4	-0.4

In the list so far, these have a carbonyl joined to an NH by a bond outside any ring:
(1) O=C(Nc1cc(S(=O)(=O)Nc2ccc(Cl)cc2)ccc1O)c1ccc(S(=O)(=O)N2CCCCCC2)cc1
(2) CSc1cc(C)nc(NC(C)=O)n1
(7) CCOC(=O)c1c(NC(=O)C(C)OC(=O)c2ccc(NC(=O)CC#N)cc2)sc2c1CCCC2 (stereo not drawn)
assay / compound	1	2	7
Six1-Eya2 blk	-1	3	-7
D2 potentiator	7	-4	11
gsp agonist	0%[15.4 µM]	6%	4%
CtBP-E1A inh	-4	5	-4
gsp antag	-110%	1%	-15%
D2 ag	-0.5	-1.7	-3.4

New compounds follow:
(13) Cc1nc(SCC(=O)NCC2CCCO2)c2c3c(sc2n1)CCC3 (stereo not drawn)
(14) COc1ccc(C(=O)NC(=S)NCc2ccccc2)cc1OC
(15) COc1ccc(CN2CCNC(=O)C2CC(=O)NCc2cnn(C)c2)cc1OC (stereo not drawn)
(16) Cc1ccccc1NC(=O)COC(=O)c1ccc2c(c1)OCCO2
(17) CC(C)C(C)NC(=O)COc1ccc(-c2ccccc2)cc1 (stereo not drawn)
(18) COc1cc(C)ccc1OCCOCCN(C)Cc1ccccc1
assay / compound	13	14	15	16	17	18
Six1-Eya2 blk	-1	-4	27	5	0	4
D2 potentiator	-1	-1	-3	-5	-13	-23
gsp agonist	?	-21%	19%	-2%[15.4 µM]	?	-28%
CtBP-E1A inh	6	-1	/	4	3	-1
gsp antag	0%	-21%	3%	7%	9%	10%
D2 ag	-2.4	-0.3	-6.3	0.3	-2.9	-4.4

Pulled one by one from the entries so far, two records:
(17) CC(C)C(C)NC(=O)COc1ccc(-c2ccccc2)cc1 (stereo not drawn)
(13) Cc1nc(SCC(=O)NCC2CCCO2)c2c3c(sc2n1)CCC3 (stereo not drawn)
assay / compound	17	13
Six1-Eya2 blk	0	-1
D2 potentiator	-13	-1
gsp agonist	?	?
CtBP-E1A inh	3	6
gsp antag	9%	0%
D2 ag	-2.9	-2.4

Continuation.
(19) Cc1ccc(NC(=O)N2C(=O)C3(OCCO3)c3ccccc32)cc1
(20) Cc1c(OCC(=O)N2CCC(C(N)=O)CC2)ccc2c3c(c(=O)oc12)CCCC3
(21) COCCn1c(SCC(=O)Nc2cc(C)on2)nc2ccccc21
(22) O=C(O)c1ccc(N2C(=O)/C(=C\c3ccccc3)N=C2c2ccccc2)cc1
(23) CN(C)S(=O)(=O)c1ccc(C(=O)NNC(=O)C23CC4CC(CC(C4)C2)C3)cc1
(24) Clc1ccc(SCc2cc(-c3ccccc3)no2)cc1
assay / compound	19	20	21	22	23	24
Six1-Eya2 blk	-6	7	4	-6	3	59
D2 potentiator	-17	-17	4	-5	-3	-22
gsp agonist	-7%	/	18%[15.4 µM]	18%	4%	30%
CtBP-E1A inh	-1	0	9	6	-4	29
gsp antag	2%	5%	-9%	?	16%	2%
D2 ag	-2.1	-6.7	2.7	-4.3	0.4	0.2

(25) CCOC(=O)C1=C(c2ccccc2)NC(SC)=C(C#N)C1c1cccnc1 (stereo not drawn)
(26) O=C(Nc1ccc(S(=O)(=O)N2CCOCC2)cc1)c1cc(S(=O)(=O)N2CCOCC2)ccc1Cl
(27) CCOC(=O)N(C)C[C@H]1OCc2cnnn2CCCC(=O)N([C@H](C)CO)C[C@H]1C
(28) COc1ccccc1CNC(=O)C1CC(c2ccc([N+](=O)[O-])cc2)=NO1 (stereo not drawn)
(29) O=C(CN(CC1CCCO1)C(=O)CNS(=O)(=O)c1ccc(F)cc1)NCc1ccc(F)cc1 (stereo not drawn)
(30) C[C@H]1CN(S(=O)C(C)(C)C)[C@H](CCO)/C1=C\c1ccccc1 (stereo partly drawn)
assay / compound	25	26	27	28	29	30
Six1-Eya2 blk	11	-5	1	0	6	2
D2 potentiator	-7	6	-1	4	-3	/
gsp agonist	-8%	0%	0%	26%	4%[15.4 µM]	/
CtBP-E1A inh	3	3	1	8	-14	-22
gsp antag	-5%	?	/	-10%	6%	-8%
D2 ag	-0.3	-1.5	-8.8	3.4	-1.5	0.9

(31) COc1ccc(Cn2nnnc2C(c2cc(OC)ccc2OC)N2CCC(C(N)=O)CC2)cc1 (stereo not drawn)
(32) Oc1ccc(O)c(C=NNC(=S)NC2CC3CC2C2C=CCC32)c1 (stereo not drawn)
(33) O=C1c2ccccc2C(=O)N1CCSc1n[nH]c(=S)s1
(34) COCCOC(=O)c1cc(C(=O)c2cc(F)ccc2O)coc1=N
(35) O=C(O)c1ccc(/C=C/c2nc3ccccc3c(=O)[nH]2)cc1
(36) O=C(O/N=C1/CCSc2ccccc21)c1ccc(F)cc1
assay / compound	31	32	33	34	35	36
Six1-Eya2 blk	0	?	-2	-1	4	16
D2 potentiator	5	-15	-8	-8	-15	-16
gsp agonist	?	30%	6%	0%	?	1%
CtBP-E1A inh	9	-9	1	-4	-15	63
gsp antag	-8%	/	-11%	-18%	6%	-9%
D2 ag	-4.7	-2.5	-1.2	-3.1	-2.2	-1.8

(37) CC1CCN(c2nncc3ccccc23)CC1
(38) COc1ccc(C(=O)COC(=O)CNC(=O)c2cccc(OC(F)F)c2)cc1
(39) COc1ccccc1NS(=O)(=O)c1cc(NC(=O)c2cc3ccccc3oc2=O)ccc1C
(40) Cc1ccccc1-c1nc(CS(=O)(=O)CC(=O)NCc2ccco2)c(C)o1
(41) CCCC(c1nnnn1CCOC)N(Cc1cc2cc(C)c(C)cc2[nH]c1=O)CC1CCCO1 (stereo not drawn)
(42) CC(=O)OC1COC(OC(C)=O)CO1 (stereo not drawn)
assay / compound	37	38	39	40	41	42
Six1-Eya2 blk	1	1	-3	-1	4	6
D2 potentiator	-16	-10	-6	-5	1	-10
gsp agonist	?	0%	9%	13%	4%	?
CtBP-E1A inh	0	/	-17	1	4	11
gsp antag	-13%	-7%	-8%	9%	-3%	6%
D2 ag	-2.1	1.2	-0.3	-1.6	-0.7	0.4

(43) Cc1csc(NC(=O)CS(=O)(=O)c2ccccc2)n1
(44) O=C(NCc1cccnc1)C1CC2c3ccccc3C1c1ccccc12 (stereo not drawn)
(45) CCOC(=O)c1c(NC(=O)CC2SC(N)=NC2=O)sc2c1CCC(C)C2 (stereo not drawn)
(46) Cc1cc(C)cc(NS(=O)(=O)c2cccs2)c1
(47) Cc1noc(C)c1NC(=O)N(C)C[C@@H]1Oc2ccc(NC(=O)C3CCCCC3)cc2C(=O)N([C@@H](C)CO)C[C@H]1C
(48) Cc1ccc(CSc2nc(N)cc(N)n2)cc1
assay / compound	43	44	45	46	47	48
Six1-Eya2 blk	3	2	-7	-2	5	-3
D2 potentiator	-2	-34	5	-4	-5	-2
gsp agonist	4%	2%	-38%[inhibitor]	0%[15.4 µM]	/	-1%[15.4 µM]
CtBP-E1A inh	5	0	3	1	6	-2
gsp antag	-2%	3%	-12%	1%	5%	5%
D2 ag	0.4	-3.0	-2.3	-2.6	0.4	2.0

Some values from above.
cpd 46 @ gsp antag: 1%
cpd 45 @ CtBP-E1A inh: 3

(cont.)
(49) COc1ccc(CC(=O)NCCc2ccc3c(c2)OCO3)cc1OC
(50) Nc1cccc2c1C(=O)N(C(=O)c1cccc(S(=O)(=O)N3CCCCCC3)c1)C2=O
(51) C=CCc1cc(Cl)ccc1OCCN(C)C
(52) CCCN1C2CCCC1CC(NC(=S)Nc1ccc(OC)cc1)C2 (stereo not drawn)
assay / compound	49	50	51	52
Six1-Eya2 blk	-7	-12	-5	2
D2 potentiator	-6	-19	-14	-7
gsp agonist	-27%	25%	18%	1%
CtBP-E1A inh	3	-3	-7	-1
gsp antag	/	10%	-7%	0%
D2 ag	-10	-1.8	-0.9	-19
